Screening results (PubChem BioAssay)
Env fusion inh – inhibitors of HIV Env-mediated cell fusion; HeLa-JRFL Env/CEM21 cell fusion, luciferase; inhibition, % at 12.3 µM; 360,000 tested, 1.1% active; AID 651610;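 active = mean replicate inhibition score of at least 50 and every replicate individually at or above 50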;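 also: 0% = plate neutral controls and 100% = maraviroc near 300 nM; one replicate is shown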
* marks the source's active call; other numbers are inactive results; & = joins results of further samples; [ ] = dose if it differs, or a comment. This is a subset; count on the stated rates, not on these rows.

SMILES	Env fusion inh
COc1ccc(-c2cnc3c(c2)C(=O)N([C@H](C)CO)C[C@H](C)[C@H](CN(C)S(=O)(=O)c2ccc(OC)cc2)O3)cc1	13&-2[16.7 µM]
COCC(=O)Nc1ccc2c(c1)OC[C@@H](C)N(CC1CC1)C[C@@H](C)[C@H](OC)CN(C)C2=O	-16[16.7 µM]
CC(C)(C)[S@@](=O)N1Cc2cc(C(=O)N[C@@H]3CCN(Cc4ccccc4)C3)nc(-c3cccc(-c4cccnc4)c3)c2[C@H]1CCO	12[16.7 µM]
C[C@@H]1CN([C@@H](C)CO)S(=O)(=O)c2ccc(-c3cccnc3)cc2O[C@@H]1CN(C)CC1CCOCC1	0[16.7 µM]
Cc1ccc(S(=O)(=O)Nc2cccc3c2O[C@@H](CN(C)Cc2ccc(Cl)c(Cl)c2)[C@@H](C)CN([C@H](C)CO)C3=O)cc1	87*[16.7 µM]
COC(=O)c1cc2c(c3c4cc(OC)ccc4n(S(=O)(=O)c4ccc(OC)cc4)c13)C(=O)N(Cc1ccc(N(C)C)cc1)C2	-30
COC(=O)C[C@@H]1CC[C@H]2[C@@H](COC[C@H](O)CN2CCC(F)(F)F)O1	-12[16.7 µM]
CC(C)[C@H](NS(=O)(=O)c1ccc(F)cc1F)C(=O)N1CCC[C@H]1C(=O)NCc1ccccc1	-24
CCC(=O)Nc1ccc2c(c1)C(=O)N(C)C[C@H](OC)[C@H](C)CN(Cc1ccncc1)[C@@H](C)CO2	-5[16.7 µM]
COC(=O)C1=C(C)N(Cc2ccccc2C(F)(F)F)C(=NCc2ccccc2C(F)(F)F)NC1c1ccc(Cl)cc1 (stereo unspecified)	-12
C[C@@H]1CN([C@H](C)CO)S(=O)(=O)c2ccc(-c3ccccc3)cc2O[C@H]1CN(C)C(=O)C1CCC1	20[16.7 µM]
Cc1cccc(S(=O)(=O)N2C[C@@H](O)COC[C@H]3O[C@H](CC(=O)Nc4ccc(-c5ccccc5)cc4)CC[C@@H]32)c1	15[16.7 µM]
Cc1ccc(S(=O)(=O)N[C@H]2CC[C@@H](CCn3cc(-c4cccnc4)nn3)O[C@H]2CO)cc1	-3[16.7 µM]
CNC[C@H]1Oc2ccc(NC(=O)Nc3ccccc3)cc2C(=O)N([C@@H](C)CO)C[C@H]1C	-25[16.7 µM]
CN(C)C(=O)N1CCN(C(=O)[C@H](CCc2ccccc2)NC(=O)[C@H]2O[C@@H](n3cnc4c(N)ncnc43)[C@H](O)[C@@H]2O)CC1	-46
COc1ccccc1CN(C)C[C@@H]1OCc2ccccc2-c2ccccc2C(=O)N([C@@H](C)CO)C[C@@H]1C	15[16.7 µM]
CO[C@@H]1CN(C)C(=O)c2ccc(NC(=O)C3CCOCC3)cc2OC[C@@H](C)N(C(=O)c2ccccc2)C[C@H]1C	11[16.7 µM]
COCC(=O)Nc1ccc2c(c1)C(=O)N(C)C[C@H](OC)[C@H](C)CN(Cc1cc(F)ccc1F)[C@H](C)CO2	-9[16.7 µM]
COCC(=O)N1C[C@@H](C)[C@H](OC)CN(C)C(=O)c2ccc(NC(=O)c3ccc(OC)cc3)cc2OC[C@H]1C	-3[16.7 µM]
CCS(=O)(=O)Nc1ccc2c(c1)C(=O)N(C)[C@@H]1CC[C@@H](CC(=O)NCCOC)O[C@@H]1CO2	0[16.7 µM]
COCC(=O)Nc1ccc2c(c1)C(=O)N(C)C[C@@H](OC)[C@@H](C)CN(Cc1ccccn1)[C@@H](C)CO2	5[16.7 µM]
COC(=O)[C@]1(Cc2ccccc2)NC=C(C(=O)c2ccccc2)[C@@H]1c1cccc(OC)c1	8
C[C@@H](NC(=O)[C@@H]1[C@@H](CO)[C@@H]2Cn3c(cccc3=O)[C@H]1N2CCC(F)(F)F)c1ccccc1	-5[16.7 µM]
O=C(C[C@@H]1C[C@@H]2c3cc(NC(=O)c4cccnc4)ccc3O[C@@H]2[C@H](CO)O1)NC1CCCCC1	-12[16.7 µM]
CCCNC(=O)Nc1ccc2c(c1)OC[C@H](C)N(Cc1cccnc1)C[C@H](C)[C@H](OC)CN(C)C2=O	-1[16.7 µM]
CCCN(C)C[C@H]1OCCCC[C@@H](C)Oc2ccc(NS(=O)(=O)c3ccc(OC)cc3)cc2C(=O)N([C@@H](C)CO)C[C@H]1C	0[16.7 µM]
O=C1[C@H](c2ccccc2)[C@@H](c2ccncc2)N1c1ccncc1	-37
C[C@@H]1CN([C@H](C)CO)C(=O)c2cccc(NC(=O)Nc3ccc(C(F)(F)F)cc3)c2O[C@@H]1CN(C)Cc1ccc(Cl)c(Cl)c1	-116[16.7 µM]
Cc1ccc(S(=O)(=O)Nc2ccc3c(c2)C(=O)N([C@@H](C)CO)C[C@H](C)[C@@H](CN(C)S(=O)(=O)c2ccc(F)cc2)O3)cc1	8[16.7 µM]
O=C(C[C@@H]1C[C@H]2c3cc(NC(=O)c4ccc5c(c4)OCO5)ccc3O[C@H]2[C@H](CO)O1)NCc1ccccn1	1[16.7 µM]

Ordered by count of non-hydrogen atoms (falling): part of the list above
SMILES	Env fusion inh
COC(=O)c1cc2c(c3c4cc(OC)ccc4n(S(=O)(=O)c4ccc(OC)cc4)c13)C(=O)N(Cc1ccc(N(C)C)cc1)C2	-30
CCCNC(=O)Nc1ccc2c(c1)OC[C@H](C)N(Cc1cccnc1)C[C@H](C)[C@H](OC)CN(C)C2=O	-1[16.7 µM]
Cc1ccc(S(=O)(=O)N[C@H]2CC[C@@H](CCn3cc(-c4cccnc4)nn3)O[C@H]2CO)cc1	-3[16.7 µM]

Structures shown so far with a Cl atom:
SMILES	Env fusion inh
Cc1ccc(S(=O)(=O)Nc2cccc3c2O[C@@H](CN(C)Cc2ccc(Cl)c(Cl)c2)[C@@H](C)CN([C@H](C)CO)C3=O)cc1	87*[16.7 µM]
COC(=O)C1=C(C)N(Cc2ccccc2C(F)(F)F)C(=NCc2ccccc2C(F)(F)F)NC1c1ccc(Cl)cc1 (stereo unspecified)	-12
C[C@@H]1CN([C@H](C)CO)C(=O)c2cccc(NC(=O)Nc3ccc(C(F)(F)F)cc3)c2O[C@@H]1CN(C)Cc1ccc(Cl)c(Cl)c1	-116[16.7 µM]

Going on with the list:
SMILES	Env fusion inh
C[C@@H]1CN([C@@H](C)CO)C(=O)c2cc(C#CC(C)(C)O)cnc2O[C@@H]1CN(C)Cc1cccc(F)c1	11[16.7 µM]
CN(C)C(=O)c1ccc(-c2cccc(-c3nc(C(=O)N(C)C)cc4c3[C@H](CCO)N([S@@](=O)C(C)(C)C)C4)c2)cc1	-7[16.7 µM]
O=C(N[C@H]1C=C[C@H](CC(=O)N2CCCCC2)O[C@@H]1CO)c1ccc2c(c1)OCO2	-7[16.7 µM]
O=C(Cc1c[nH]c2ccccc12)Nc1ccc(Nc2cccnc2)c(-c2ccc(-c3ccccc3)cc2F)c1	11
C[C@@H]1CN([C@@H](C)CO)C(=O)c2cc(N(C)C)ccc2O[C@@H]1CN(C)Cc1ccc(Oc2ccccc2)cc1	27[16.7 µM]
COc1cc2c(c3c1c(=O)c1cccc(F)c1n3C)C=CC(C)(C)O2	-14
C[C@H]1CN([C@@H](C)CO)C(=O)c2ccccc2-c2ccccc2CO[C@@H]1CN(C)C(=O)Cc1ccccc1	44[16.7 µM]
CO[C@H]1CN(C)C(=O)c2cc(NC(=O)C3CC3)ccc2OC[C@@H](C)N(Cc2cncnc2)C[C@H]1C	3[16.7 µM]
CO[C@@H]1CN(C)C(=O)c2ccc(NC(=O)Nc3c(C)noc3C)cc2OC[C@@H](C)NC[C@H]1C	1[16.7 µM]
COC(=O)[C@]12C[C@H](CC(=O)NCc3ccc(OC)c(OC)c3)C(=O)N(Cc3ccc4c(c3)OCO4)C1=C[C@H](C(C)(C)C)O[C@@H]2C	39
C[C@@H]1CCCCO[C@H](CN(C)C(=O)c2ccncc2)[C@@H](C)CN([C@H](C)CO)C(=O)c2cc(NC(=O)c3ccccc3)ccc2O1	7[16.7 µM]
CN(C)CC(=O)Nc1ccc2c(c1)[C@H]1C[C@@H](CC(=O)N3CCCCC3)O[C@H](CO)[C@H]1O2	-3[16.7 µM]
CCCC(=O)N1CCC2(CC1)CN(C(=O)Nc1cccc(F)c1)[C@H](CO)c1c2c2ccc(OC)cc2n1C	-17[16.7 µM]
CO[C@@H]1CN(C)C(=O)c2ccc(NC(=O)c3ccc4c(c3)OCO4)cc2OC[C@H](C)N(CCC(F)(F)F)C[C@H]1C	18[16.7 µM]
CN1CCN(C(=O)C[C@@H]2CC[C@@H]3[C@H](COC[C@@H](O)CN3Cc3cccc(F)c3)O2)CC1	-3[16.7 µM]

Env fusion inh, what is marked active above
SMILES	Env fusion inh
Cc1ccc(S(=O)(=O)Nc2cccc3c2O[C@@H](CN(C)Cc2ccc(Cl)c(Cl)c2)[C@@H](C)CN([C@H](C)CO)C3=O)cc1	87*[16.7 µM]

Additional records follow.
SMILES	Env fusion inh
CCNC(=O)[C@@H]1[C@@H](CO)[C@@H]2Cn3c(ccc(C4=CCCC4)c3=O)[C@@H]2N1C(=O)C1CC1	9[16.7 µM]
C[C@@H]1CN([C@H](C)CO)S(=O)(=O)c2ccc(C3=CCCC3)cc2O[C@@H]1CN(C)C(=O)C1CC1	-1[16.7 µM]
CN(C)C(=O)C[C@@H]1CC[C@H]2[C@@H](COC[C@@H](O)CN2C(=O)C2CCCC2)O1	-5[16.7 µM]
CC(C)NC(=O)Nc1ccc2c(c1)C(=O)N([C@@H](C)CO)C[C@H](C)[C@@H](CN(C)C)OCCCC[C@H](C)O2	11[16.7 µM]
Cc1ccc(S(=O)(=O)NC[C@@H]2CC[C@H]3[C@H](CN3Cc3cc(-c4ccccc4)on3)O2)cc1	-7[16.7 µM]
Cc1ccc(S(=O)(=O)Nc2ccc3c(c2)C(=O)N([C@@H](C)CO)C[C@H](C)[C@@H](CN(C)Cc2ccc(Oc4ccccc4)cc2)O3)cc1	21[16.7 µM]
CCCNC(=O)N1CCC2(CC1)CN(Cc1ccccc1)[C@@H](CO)c1[nH]c3cc(OC)ccc3c12	-287[16.7 µM]
CO[C@@H]1CN(C)C(=O)c2cc(NC(=O)Nc3cccc(Cl)c3)ccc2OC[C@H](C)NC[C@@H]1C	-3[16.7 µM]
C[C@H]1CN([C@@H](C)CO)C(=O)c2ccccc2-c2ccccc2CO[C@H]1CN(C)Cc1ccc2c(c1)OCCN2C	-61[16.7 µM]
COC(=O)C1=C(C)N(Cc2cccc(C(F)(F)F)c2)C(=NCc2ccc3c(c2)OCO3)NC1CCc1ccccc1 (stereo unspecified)	41
C[C@@H]1CN([C@H](C)CO)C(=O)c2ccccc2-c2ccccc2CO[C@H]1CN(C)S(=O)(=O)c1cccc(C#N)c1	11[16.7 µM]
COc1ccc(-c2cc(NC(=O)Cc3c(C)[nH]c4ccccc34)ccc2Nc2cccnc2)cc1OC	-40
N[C@@H]1CC[C@@H](CCn2cc(-c3ccccn3)nn2)O[C@H]1CO	-14[16.7 µM]
COc1ccc(NC(=O)N(C)C[C@H]2Oc3ccc(N(C)C)cc3C(=O)N([C@H](C)CO)C[C@H]2C)cc1	0[16.7 µM]
Cc1ccc(S(=O)(=O)N[C@H]2CC[C@H](CCn3cc(-c4cccnc4)nn3)O[C@@H]2CO)cc1	12[16.7 µM]
O=C(NC1Cc2ccccc2C1)[C@H]1N[C@H]2c3cccc(=O)n3C[C@H]2[C@@H]1CO	15[16.7 µM]
COc1ccc(S(=O)(=O)N(C)C[C@H]2OCCCC[C@H](C)Oc3ccc(NS(=O)(=O)c4cn(C)cn4)cc3C(=O)N([C@H](C)CO)C[C@H]2C)cc1	6[16.7 µM]
COc1ccc2c3c(n(C)c2c1)[C@@H](CO)N(C(=O)c1cnccn1)CC31CCN(C(=O)c2cnccn2)CC1	-3[16.7 µM]
O=C1NCCOc2ccccc21	0
C/C=C/c1ccccc1[C@H]1[C@@H](CO)N(C(=O)Nc2ccccc2F)[C@H]1C#N	-3[16.7 µM]
Cc1ccc(S(=O)(=O)Nc2ccc3c(c2)C(=O)N([C@@H](C)CO)C[C@H](C)[C@@H](CN(C)CC2CC2)OCCCC[C@H](C)O3)cc1	2[16.7 µM]
COc1ccc(S(=O)(=O)Nc2ccc3c(c2)OC[C@H](C)NC[C@H](C)[C@@H](OC)CN(C)C3=O)cc1	-7[16.7 µM]
COc1ccc(S(=O)(=O)N(C)C[C@@H]2OCCCC[C@@H](C)Oc3ccc(NS(=O)(=O)c4cn(C)cn4)cc3C(=O)N([C@@H](C)CO)C[C@@H]2C)cc1	11[16.7 µM]
CN1C(=O)c2cc(NC(=O)Nc3ccc(Cl)cc3)ccc2OC[C@H]2O[C@@H](CC(=O)NCCN3CCCCC3)CC[C@H]21	5[16.7 µM]
C[C@H]1CN([C@@H](C)CO)C(=O)c2cccc(NC(=O)Nc3cccc4ccccc34)c2O[C@H]1CN(C)Cc1ccc(C(=O)O)cc1	-3[16.7 µM]
C[C@@H]1CN([C@H](C)CO)C(=O)c2ccccc2-c2ccccc2CO[C@@H]1CN(C)C(=O)Cc1ccccc1	-2[16.7 µM]
C[C@H](CO)N1C[C@H](C)[C@@H](CN(C)Cc2ccccc2)Oc2cc(C3=CCCCC3)ccc2S1(=O)=O	29[16.7 µM]
COc1ccccc1CNC(=O)C[C@@H]1C[C@H]2c3cc(NC(=O)Nc4ccc(C(F)(F)F)cc4)ccc3O[C@H]2[C@H](CO)O1	-7[16.7 µM]
O=C(O)C[C@@H]1C=C[C@H](NC(=O)c2ccccc2F)[C@H](CO)O1	15[16.7 µM]
CCCCc1c(-c2ccccc2OC)ncn1C(C)c1ccccc1 (stereo unspecified)	76*
C[C@@H]1CCCCO[C@@H](CN(C)C(=O)Nc2ccc(F)cc2)[C@H](C)CN([C@@H](C)CO)C(=O)c2cc(N(C)C)ccc2O1	21[16.7 µM]
COC(=O)[C@]12C[C@H](CC(=O)NCc3cccc4ccccc34)C(=O)N(CCC3=CCCCC3)C1=C[C@H](COCc1ccccc1)O[C@@H]2C	2
Cc1noc(C)c1NC(=O)Nc1ccc2c(c1)C(=O)N([C@@H](C)CO)C[C@H](C)[C@@H](CN(C)CC1CC1)OCCCC[C@H](C)O2	12[16.7 µM]
COC(=O)C[C@H]1C[C@@H]2c3cc(NC(=O)c4ccc5c(c4)OCO5)ccc3O[C@@H]2[C@H](CO)O1	-9[16.7 µM]
